High-throughput results (PubChem)
TRPV1 potentiator = enhances activation of the human vanilloid receptor TRPV1; TRPV1-expressing cells, Fluo-8 calcium influx, capsaicin EC20 potentiation; host cell line not named in the record; control for the full effect not named in the record; potentiation, % at 8.33 µM; hit rate 0.02% among 320,000; AID 540277; active means potentiation above 80%; inconclusive means 30% to 80%; inactive means below 30%; note: 0% is about no effect
Target sequence (Q8NER1 whole entry, looked up): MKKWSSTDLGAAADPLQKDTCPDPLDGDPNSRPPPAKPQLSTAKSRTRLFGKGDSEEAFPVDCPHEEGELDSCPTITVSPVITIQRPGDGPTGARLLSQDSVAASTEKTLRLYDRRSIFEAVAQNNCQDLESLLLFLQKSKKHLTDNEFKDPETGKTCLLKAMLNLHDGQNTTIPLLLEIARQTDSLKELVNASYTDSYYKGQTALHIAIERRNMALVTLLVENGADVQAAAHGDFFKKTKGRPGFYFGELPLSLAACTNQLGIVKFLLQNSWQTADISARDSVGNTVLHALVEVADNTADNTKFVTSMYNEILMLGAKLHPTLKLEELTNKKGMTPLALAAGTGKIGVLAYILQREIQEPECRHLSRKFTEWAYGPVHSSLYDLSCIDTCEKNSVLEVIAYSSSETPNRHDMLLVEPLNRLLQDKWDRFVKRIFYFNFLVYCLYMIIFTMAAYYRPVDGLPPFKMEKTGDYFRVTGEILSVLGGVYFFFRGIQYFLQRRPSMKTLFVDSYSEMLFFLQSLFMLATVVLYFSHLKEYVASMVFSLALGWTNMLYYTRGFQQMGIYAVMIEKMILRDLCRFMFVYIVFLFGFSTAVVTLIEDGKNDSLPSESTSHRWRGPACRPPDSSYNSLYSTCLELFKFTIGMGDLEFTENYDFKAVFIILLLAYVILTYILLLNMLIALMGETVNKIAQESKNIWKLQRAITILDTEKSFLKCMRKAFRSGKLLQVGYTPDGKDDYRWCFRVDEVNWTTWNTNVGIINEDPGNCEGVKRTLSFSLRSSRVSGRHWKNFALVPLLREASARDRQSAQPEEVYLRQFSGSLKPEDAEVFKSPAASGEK
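TRPV1-expressing cells were cultured overnight at 35.5C and loaded with Fluo-8 calcium dye for 40 to 90 min at room temperature. After a 10 s baseline, compound was added and calcium influx was read kinetically for 3 min (ex 480/em 520 nm).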
ClpP mod = qHTS Assay for Activators of ClpP | purified B. subtilis ClpP, FRET peptide cleavage, 20 min | Potency, µM (doses to about 57.5 µM), for inactives: at the top dose activity change, negative = active | hit rate 1.9% among 340,000; active = well fitted falling curve with a large enough effect; inconclusive = small, poorly fitted or top-dose-only effect; inactive = no such curve, though single readings can be large or run the other way; note: potency is the fitted concentration of half-maximal effect; the source files actives as falling curves though it sought activators and does not explain the sign; nearly all actives have a fitted effect of over 65% in size; many hits overshoot -100%
Target sequence (P80244 whole entry, looked up): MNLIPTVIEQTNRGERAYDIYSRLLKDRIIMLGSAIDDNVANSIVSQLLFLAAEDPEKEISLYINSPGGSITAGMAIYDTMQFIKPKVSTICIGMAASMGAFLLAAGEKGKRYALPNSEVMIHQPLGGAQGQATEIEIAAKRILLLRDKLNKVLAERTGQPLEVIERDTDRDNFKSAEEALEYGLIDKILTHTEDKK
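ClpP 10 microg/mL final, pH 8 Tris/KCl buffer with BSA, glycerol, Tween-20; compound pinned in; FRET-FV substrate; RT 20 min; Ex320/Em430; ΔFRET vs ADEP 5.8 microM, DMSO, no enzyme.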
Sfp inh = Sfp phosphopantetheinyl transferase inhibition; Biochemical Sfp PPTase activity, qHTS; Potency, µM, without a hit: max response, negative = inhibition, actives largely listed as inhibitors; hit rate 3.5% among 310,000; AID 1490; active = well fitted inhibition curve with a large enough effect; inconclusive = small, poorly fitted or top-dose-only effect, or another doubt; inactive = no such curve, though single readings can be large or run the other way;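 note: the enzyme is Sfp with the accession as filed and its product quenches rhodamine fluorescence; potency is the fitted concentration of half-maximal effect; 0% = enzyme reaction without inhibitor and -100% = no enzyme wells; top concentration of the series not given in the record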
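Buffer: 50 mM Hepes-Na pH 7.6, 10 mM MgCl2, 0.01% Nonidet P-40, 0.01% BSA. Enzyme 15 nM, pre-exposed to compound 15 min; substrates then added and fluorescence change tracked over 30 min.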
TRPML1 ag = activates the human TRPML1 channel; Q9GZU1; TRPML1-expressing cells, Ca2+ dye fluorescence, FDSS; host cell line not named in the record; reference of the full effect not given here; activation, % (no concentration beside the values); hit rate 0.12% among 410,000; AID 624414; in the data active = activation above about 50%; inconclusive = about 30% to 50%; inactive = below about 30%; note: 0% is about no effect; the text of the record puts the active cut at 80%
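Kinetic FDSS Ca2+ read in Tet-induced TRPML1-DL cells (ABD Ca8 dye plus quencher, 45-90 min RT loading): baseline, then compound, then 110 s agonist window; EC80 agonist 54-4 at 4uM final added afterwards for a 110 s antagonist window.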
PINK1 modulator = PINK1 expression modulation | AID 624263 | hit rate 0.2% among 410,000 | Potency, µM (top dose mostly 76.6 µM), inactives show at the highest dose activation (PINK1 increase), hits mostly activators | PINK1 immunofluorescence, high-content cytometry, 24 h; active = well fitted activation curve with a large enough effect; inconclusive = small, poorly fitted or top-dose-only effect; inactive = flat fitted curve, though single readings scatter; cell line not stated here;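 note: potency is the fitted concentration of half-maximal effect; % of control where 0% means no effect; nearly all actives have a fitted effect of over 65% in size; a mitochondrial uncoupler was the plate control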
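Readout is PINK1 immunofluorescence, quantified alongside mitochondrial, cell and nuclear markers by laser-scanning microplate cytometry. Cells from a stable line were exposed to compound titrations (5 concentrations) for 24 hours, with CCCP controls.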
TRPML1 blocker = blocks the human TRPML1 channel | Q9GZU1 | TRPML1-inducible cells, Ca2+ dye fluorescence, FDSS; hits give low values; inhibition of EC80 agonist-evoked calcium signal | activity change, negative = inhibition, % (no concentration beside the values) | hit rate 0.02% among 390,000 | AID 624415; in the data active means activity change below about -50%; inconclusive means about -30% to -50%; inactive means above about -30%;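 note: stimulus is agonist 54-4 at its EC80 concentration; % is set by controls: 0 for no effect and ±100 for the full control effect; compound concentration not given in the record; the text of the record puts the active cut at -80%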
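TRPML1-DL cells, Tet-induced overnight (~16 h, 37 °C) at 1,500 cells/well, were loaded with Ca8 no-wash dye plus quencher for 45-90 min at room temperature. Compounds were pinned during FDSS kinetic reading; agonist 54-4 at EC80 (4 uM final) then added.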
Menin MLL FP FL = menin-MLL binding inhibition, fluorescein peptide; Fluorescence polarization, fluorescein-MLL peptide displacement from menin; 290,000 tested, under 10 active; FP activity change, % at 61.4 µM; AID 1766; inconclusive = falling polarisation curve, or a change in total fluorescence; inactive = total fluorescence flat and polarisation flat or rising; no compound was filed as active; the % refers to the polarisation; negative = inhibition;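 note: % of control where 0% means no effect; inhibitors lower the polarisation; unlabelled MLL peptide was the positive control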
Active calls of the source: *; u = inconclusive; x = not tested or not shown; [ ] = dose if it differs, or a comment. No enrichment for hits, and some 4.4% of all compounds hit somewhere here.

canonical_smiles,TRPV1 potentiator,ClpP mod,Sfp inh,TRPML1 ag,PINK1 modulator,TRPML1 blocker,Menin MLL FP FL
O=[N+]([O-])c1ccc(N2CCN(c3ccc(F)cc3)CC2)cn1,1,x,11%,2.5,0.6%,12,-7.6
CC(=O)N1CCOc2ccc(S(=O)(=O)N(C)c3cccc(C)c3)cc21,21,-1.3%,2%,-1.0,-1.7%,-16,x
COc1ccccc1C(CNC(=O)c1ccc(C)c(S(=O)(=O)N2CCCCC2)c1)N(C)C (stereo not drawn),-3,0.3%,x,-1.6,-0.4%,6,x
Cc1nn2c(COc3ccc(NC(=O)c4ccccc4)cc3)nnc2c2ccccc12,4,0.1%,5%,2.7,u,16,x
CCOc1ccc(/C=N/Nc2cc(N3CCOCC3)nc(C)n2)c(O)c1,2,0.0%,-11%,1.9,-0.2%,31,2.5
Cc1ccc(C(=O)OCC(=O)Nc2ccccc2Cl)c(O)c1,-2,-19%,-3%,x,4.8%,x,5.3
COc1cc2cc(CCCOC(=O)c3ccc(C(F)(F)F)cc3)oc(=O)c2cc1OC,-20,-8.2%,x,0.6,-0.7%,-23,x
COc1ccc(Cc2noc(CN3CCCN(Cc4ccc(F)cc4)CC3)n2)cc1OC,-12,x,18%,-1.0,1.4%,1,-0.9
COc1ccccc1NC(=O)COC(=O)c1ccc([N+](=O)[O-])s1,-6,x,6%,3.6,2.1%,-7,-1.8
CCCNC(=O)C/C(C)=N/NC(=O)C(=O)Nc1ccccn1,0,-0.3%,-6%,-0.1,1.0%,3,-1.3
COc1ccccc1CNC(=O)C(=O)NCC1OCCN1S(=O)(=O)c1ccccc1 (stereo not drawn),5,7.5%,11%,-0.3,5.9%,-4,4.6
CC(=O)c1cccc(NC(=O)COC(=O)c2ccccc2OCc2cccc(Br)c2)c1,x,-1.2%,x,0.3,5.4%,x,x
COc1ccc(C2NC(=O)CCC2[N+](=O)[O-])c(OC)c1 (stereo not drawn),6,1.8%,17%,2.1,-4.3%,4,2.7
COc1ccc(NC(=O)c2nc[nH]c2C(=O)N(C)Cc2ccccc2)cc1,-2,0.5%,-4%,1.1,2.5%,9,0.3
COc1cccc(/C=C/C(=O)NNC(=O)c2ccncc2)c1,14,-6.1%,x,0.3,-2.2%,-12,x
CN(C(=O)c1cc2c(=O)oc3ccccc3c2s1)c1ccc(F)cc1,x,0.3%,x,0.1,7.2%,17,x
Cc1c(O)c(CN2CCCCC2)cc2c3c(c(=O)oc12)CCC3,22,75%,12%,-0.8,0.9%[38.3 µM],-18,0.4
CCOC(=O)C1=C(C)N=C2SCCC(=O)N2C1c1ccc(OCc2ccccc2)cc1 (stereo not drawn),x,0.3%,x,0.3,3.2%,-10,x
Fc1cccc(Cc2c(-c3ccc(Cl)cc3)nc3c(Cl)cc(C(F)(F)F)cn23)c1,x,u,x,0.4,-0.6%,x,x
COc1ccc(C2NC(C(=O)O)Cc3c2[nH]c2ccccc32)cc1CN1CCN(c2ccc(F)cc2)CC1 (stereo not drawn),-4,-7.3%,8%,0.0,0.9%,9,4.0
N/C(=N\N=C/c1ccc(F)cc1)N/N=C\c1ccc(F)cc1,-9,0.2%,-7%,x,-1.3%,x,-0.5
COc1cc(NC(=O)COCc2cc(-c3ccc4c(c3)OCO4)on2)c(OC)cc1Cl,x,u,x,0.4,0.2%,17,x
O=C(NC(Cc1nn[nH]n1)C(=O)OCc1ccccc1)OCc1ccccc1 (stereo not drawn),x,-0.9%,x,0.1,-0.1%,-12,x
CCN(CC(=O)Nc1ccc2c(c1)OCCO2)C(=O)c1ccc(C)c(S(=O)(=O)N2CCOCC2)c1,5,1.7%,x,0.1,1.2%,2,x
COCC(C)NC(=O)c1ccc2c(c1)S(=O)(=O)c1ccccc1C2=O (stereo not drawn),7,0.5%,12%,-0.2,2.6%,-4,x
C#CCOc1ccccc1CNc1ccccc1,6,-1.6%,5%,2.6,6.9%,21,7.0
CCN1CCN(C(=O)c2cnn(-c3cccc(Cl)c3)c2C2CCN(C(=O)OC(C)(C)C)CC2)CC1,x,-0.6%,x,1.0,-1.0%,4,x
Cc1ccc(S(=O)(=O)n2nc(C)cc2N)cc1,2,x,9%,0.6,1.7%,16,1.0
CCNC(=O)C1(C)CCN(C(=O)c2cccc3ccccc23)C1 (stereo not drawn),x,-1.8%,x,-0.5,1.0%,1,x
O=S(=O)(Cc1ccccc1)Nc1ccccc1,5,-0.8%,9%,0.7,0.6%,-23,-7.9
O=C(O)COc1ccccc1/C=N/NC(=O)c1cccc(S(=O)(=O)N2CCOCC2)c1,-13,x,u,-1.1,2.0%,-18,0.2
Cc1cc([N+](=O)[O-])nn1CCCC(=O)Nc1cccc(Cl)c1Cl,-1,x,22%,-0.7,3.0%,-3,-1.5
O=C(Cc1cccs1)N(Cc1ccco1)C1(C(=O)NC2CCCCC2)CCCCC1,6,0.0%,4%,2.4,-0.7%,9,4.8
Cc1ccc(C(=O)N/C(=C\c2cccc([N+](=O)[O-])c2)C(=O)NCc2ccncc2)cc1,0,-3.3%,16%,0.3,1.6%,0,6.0
CC(=O)Nc1ccc(C(=O)NNC(=O)Cc2ccccc2)cc1,3,x,9%,1.4,-3.2%,4,-1.8
CN1CCC(N2CCN(C3CN(Cc4ccc(F)cc4)S(=O)(=O)C3)CC2)CC1 (stereo not drawn),x,-10%,x,-0.4,2.5%,-4,x
COc1cccc(/C=C(\C#N)c2nc3ccccc3[nH]2)c1OCC(=O)O,-2,-4.8%,10%,0.3,-0.4%,-18,15
Cn1nc(C(C)(C)C)cc1C(=O)N1CCCC(c2cc(C(=O)NCc3ccccc3)no2)C1 (stereo not drawn),x,1.5%,x,-0.7,2.0%,x,x
CN=C1S/C(=C\c2ccc(O)c(Br)c2)C(=O)N1C,-1,-1.3%,2%,-0.5,0.4%,-1,u
COc1ccc(OCCC(=O)Nc2ccc(S(N)(=O)=O)cc2)cc1,-8,x,18%,-0.3,1.4%,25,7.9
CN(C(=O)COC(=O)C1CCN(S(=O)(=O)c2ccc3c(c2)OCCO3)CC1)C1CCS(=O)(=O)C1 (stereo not drawn),-1,1.0%,x,-0.4,1.8%,6,x
CCOC(=O)c1c(C)[nH]c(CCC(=O)NCc2ccccc2Cl)c1C,x,-0.4%,x,3.8,0.0%,-5,x
O=C(CCC1CCCCC1)NCCS(=O)(=O)N1CCN(c2ccccc2)CC1,-2,1.3%,x,-0.5,-0.6%,-14,x
O=C(CN1CCCN(Cc2ccc(F)cc2)S1(=O)=O)NCc1ccccc1Cl,x,0.9%,x,1.7,-0.9%,40,x
Cc1ccc(NC(=O)c2cc(=O)[nH]c3ccc(S(=O)(=O)N4CCOCC4)cc23)nc1,-1,5.5%,x,0.9,-0.9%,9,x
CCc1cc2c3c(c1)C1(C(=O)N3C(C)(C)C=C2C)C(C#N)=C(N)Oc2[nH]c(=O)[nH]c(=O)c21 (stereo not drawn),-1,x,-27%,-0.7,7.4%,11,6.7
O=C(c1ccccc1Cl)n1nc(-c2ccco2)nc1NCc1cccs1,x,0.9%,x,3.4,-0.7%,53,x
CC1(C(=O)NCc2ccc(C(F)(F)F)cc2)CCN1Cc1cc2ccccc2o1 (stereo not drawn),x,-0.3%,x,0.0,3.6%,x,x
O=C(/C=C/c1ccc(Cl)cc1Cl)c1cccnc1,-7,0.1%,32µM*,1.9,-1.8%,-2,0.5
Cc1cnc(NC(=O)c2ccccn2)s1,-10,x,u,-0.2,0.4%,-8,0.6
N[C@@H](Cc1ccccc1)c1nnc(SCc2ccccc2Cl)o1,-10,-0.8%,2%,0.3,1.1%,21,7.7
O=C(OCc1nc2ccccc2c(=O)[nH]1)c1cccs1,-13,-9.8%,10%,2.8,-1.8%,-23,1.2
O=C(NNC(=O)c1cccs1)c1ccc(S(=O)(=O)N2CCCCC2)cc1,-10,-3.9%,-11%,-0.5,0.2%,1,4.2
O=C1NC(c2cccc3ccccc23)Nc2ccccc21 (stereo not drawn),x,u,x,0.9,7.0%,-1,x
CC(=NCCCn1ccnc1)c1c(C)[nH]n(-c2ccc([N+](=O)[O-])cc2)c1=O,16,x,10%,-0.9,16%,6,4.1
CC1(C)CC(=O)C(C=NCCN2CCN(C(=S)Nc3cccc(Cl)c3)CC2)=C(O)C1,5,-2.2%,-13%,0.2,2.2%[38.3 µM],18,-2.1
CCCC(=O)NC(=S)c1c(C)n(C)n(-c2ccccc2)c1=O,-16,-2.8%,-28%,3.8,-1.0%,24,7.0
Cc1cccc(C)c1-n1nnnc1C(C1CC1)N1CCN(C/C=C/c2ccccc2)CC1 (stereo not drawn),x,-4.0%,x,-0.5,25%,x,x
CCOCC(=O)Nc1nc2c(s1)C(=O)CC(C)(C)C2,29,u,-14%,0.0,0.0%,-1,0.7
O=C(CNc1ccc2ccccc2c1)N/N=C/c1ccncc1,-20,0.0%,-21%,0.1,-0.1%,-25,-5.3

The list continues.
canonical_smiles,TRPV1 potentiator,ClpP mod,Sfp inh,TRPML1 ag,PINK1 modulator,TRPML1 blocker,Menin MLL FP FL
COC(=O)c1cc(OC)c(OC)cc1NC(=O)Nc1ccccc1F,11,x,18%,0.7,2.2%,46,3.2
CCOP(=O)(OCC)C(NCc1ccccc1)c1ccc(Br)cc1 (stereo not drawn),-16,12%,8%,0.1,-0.8%,-2,1.7
CCCCN1C[C@H](CSC)[C@@H](CC(=O)Nc2ccc(OC)cc2)C1=O,x,-1.4%,x,-0.6,-2.1%,0,x
Cc1nnc(NC(=O)C23CC4CC(CC(C4)C2)C3)s1,0,0.5%,4%,x,2.2%,x,0.3

Single entries from the entries so far.
Result of CCOP(=O)(OCC)C(NCc1ccccc1)c1ccc(Br)cc1 (stereo not drawn) under Sfp inh: 8%
Result of CCCCN1C[C@H](CSC)[C@@H](CC(=O)Nc2ccc(OC)cc2)C1=O under TRPML1 blocker: 0
